# Compound activity: PubChem BioAssay, several laboratories
# FXIa inh 1536: human FXIa protease inhibitors, primary screen, biochemical, 1536-well. purified FXIa, Boc-Glu-Ala-Arg-AMC fluorogenic substrate. inhibition, % at 5 µM. Coagulation factor XI (Homo sapiens), P03951. 220,000 compounds, 0.14% hits;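 active = inhibition of at least 40%; inactive = inhibition below 40%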;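 note: fluorescence of freed AMC excited at 355 nm; 0% = enzyme without compound and 100% = no enzyme blank; many of its hits are not listed in these tables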
# Target sequence (P03951 19-387 limits assumed): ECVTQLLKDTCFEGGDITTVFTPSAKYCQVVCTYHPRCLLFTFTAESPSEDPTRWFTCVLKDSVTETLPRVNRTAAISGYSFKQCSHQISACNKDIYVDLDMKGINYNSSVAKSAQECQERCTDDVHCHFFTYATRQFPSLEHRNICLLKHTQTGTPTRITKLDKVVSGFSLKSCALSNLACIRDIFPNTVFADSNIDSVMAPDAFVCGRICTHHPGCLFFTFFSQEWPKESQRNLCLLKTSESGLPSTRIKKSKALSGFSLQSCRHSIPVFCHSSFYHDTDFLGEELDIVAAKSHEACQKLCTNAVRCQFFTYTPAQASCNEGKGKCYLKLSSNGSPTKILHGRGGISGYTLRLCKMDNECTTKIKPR
# Target sequence (P03951 388-625 limits assumed): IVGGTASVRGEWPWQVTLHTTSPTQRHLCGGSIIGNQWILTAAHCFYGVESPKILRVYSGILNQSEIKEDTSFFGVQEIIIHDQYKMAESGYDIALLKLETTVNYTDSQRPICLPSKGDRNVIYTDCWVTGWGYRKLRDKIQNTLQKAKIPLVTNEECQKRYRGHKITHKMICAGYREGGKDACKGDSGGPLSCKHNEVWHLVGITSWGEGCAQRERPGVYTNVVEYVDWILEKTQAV
# FXIIa inh 1536: human FXIIa protease inhibitors, primary screen, biochemical, 1536-well. AID 800, 2007. inhibition, % at 5 µM. 220,000 compounds, 0.3% hits. purified FXIIa, Boc-QGR-AMC fluorogenic substrate, 2 h; in the data active = inhibition above about 40%;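 note: 0% = enzyme with no compound and 100% = blank without enzyme; many of its hits are not listed in these tables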
# p97 inhibitor: inhibitors of human p97 ATPase, primary screen, biochemical | AID 1481, 2009 | recombinant p97 ATPase, Kinase-Glo ATP luminescence, 3 h | 220,000 compounds, 0.42% hits | Transitional endoplasmic reticulum ATPase (Homo sapiens), P55072 | inhibition, % at 8 µM; in the data active = inhibition above about 15%;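 note: 0% = DMSO vehicle and 100% = wells lacking enzyme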
# Furin inh: human furin inhibitors, primary screen, biochemical, fluorescence intensity | 220,000 compounds, 0.061% hits | inhibition, % at 30 µM | P09958 | purified furin, fluorogenic substrate cleavage; in the data active = inhibition above about 25%; note: inactives centre near -15
# PERK inhibitor: block of dimerizer-induced PERK translation repression, primary screen, PERK inhibitor project, CHO PERK-DD cells, SEAP luminescence, HTS; Eukaryotic translation initiation factor 2-alpha kinase 3 (Homo sapiens), Q9NZJ5; CHO PERK-DD fusion, SEAP luminescence translation reporter; inhibition, % at 5.6 µM; 220,000 compounds, 0.17% hits;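 active = inhibition above the mean inhibition of all tested compounds plus 3 SD, set separately per screening campaign, cut at about 2.9% in these data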;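 note: PERK kinase domain activated by AP20187 dimerizer at 100 nM; 0% = DMSO with dimerizer and 100% = rapamycin at 8.4 µM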
# * = called active by the depositor; . = no result given; & = joins results of further samples; ! = a repeat was not active; [ ] = dose if it differs, or a comment. This is a subset; count on the stated rates, not on these rows.
molecule	FXIa inh 1536	FXIIa inh 1536	p97 inhibitor	Furin inh	PERK inhibitor
CC[C@H](C)C(=O)O[C@H]1C[C@@H](C)C=C2C=C[C@H](C)[C@H](CC[C@@H]3C[C@@H](O)CC(=O)O3)[C@H]21	8	15	6	-8	-0.2
CCN(CC)CC(=O)Nc1c(C)cccc1C	8&10	10&12	20*!	-19&-12	2.1&1.3
CC(C)c1nc2sc3c(=S)nc[nH]c3c2c2c1CCC2	0	10	42*	-23	1.5
Cc1cn(Cc2ccccc2)c(=O)[nH]c1=O	6	14	3	-21[20 µM]	0.8
CCn1c(SCC(N)=O)nc2sc3c(c2c1=O)CCCC3	-6	4	-3	-7[20 µM]	0.0
O=C(c1ccccc1)N1CCN(Cc2ccccc2)CC1	-1	10	-2	-10[20 µM]	-1.1
NC(=O)C1CCN(C(=O)Nc2ccccc2)CC1	0	13	-1	-21[20 µM]	0.7
CC(=O)c1cn(Cc2ccccc2)c(=O)n(Cc2ccc(F)cc2)c1=O	-2	6	-1	-19	0.7
Cc1cccc(CCN2CCC(C(=O)c3ccc(NS(C)(=O)=O)cc3)CC2)n1	.	.	4	.	1.5
CN(C)CCCN1c2ccccc2Sc2ccc(C(F)(F)F)cc21	16	8	-7	-12	-1.5

# Record cards, as listed above.
# `CCN(CC)CC(=O)Nc1c(C)cccc1C` reads FXIa inh 1536 = 8&10; FXIIa inh 1536 = 10&12; p97 inhibitor = 20*!; Furin inh = -19&-12; PERK inhibitor = 2.1&1.3
# `CC(=O)c1cn(Cc2ccccc2)c(=O)n(Cc2ccc(F)cc2)c1=O` reads FXIa inh 1536 = -2; FXIIa inh 1536 = 6; p97 inhibitor = -1; Furin inh = -19; PERK inhibitor = 0.7

# An excerpt from above in order of their number in Furin inh, lowest first.
Molecule | Furin inh
CC(C)c1nc2sc3c(=S)nc[nH]c3c2c2c1CCC2 | -23
CC(=O)c1cn(Cc2ccccc2)c(=O)n(Cc2ccc(F)cc2)c1=O | -19
CN(C)CCCN1c2ccccc2Sc2ccc(C(F)(F)F)cc21 | -12

# Compounds listed so far with sulfur, in the order listed:
molecule	FXIa inh 1536	FXIIa inh 1536	p97 inhibitor	Furin inh	PERK inhibitor
CC(C)c1nc2sc3c(=S)nc[nH]c3c2c2c1CCC2	0	10	42*	-23	1.5
CCn1c(SCC(N)=O)nc2sc3c(c2c1=O)CCCC3	-6	4	-3	-7[20 µM]	0.0
Cc1cccc(CCN2CCC(C(=O)c3ccc(NS(C)(=O)=O)cc3)CC2)n1	.	.	4	.	1.5
CN(C)CCCN1c2ccccc2Sc2ccc(C(F)(F)F)cc21	16	8	-7	-12	-1.5
